# Cruzain inh Det = qHTS Assay for Promiscuous and Specific Inhibitors of Cruzain (with detergent) | Cruzipain (Trypanosoma cruzi), P25779 | purified cruzain, Z-FR-AMC fluorescence, 0.01% Triton | Potency, µM, inactives show max response, negative = inhibition, hits mostly inhibitors | 200,000 compounds, 0.43% hits; active means well fitted curve in the direction sought with a large enough effect; inconclusive means small, poorly fitted or top-dose-only effect, or another doubt; inactive means no such curve, though single readings can be large; an effect the other way counts as inactive or inconclusive;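 further: plate controls were neutral wells for no effect and buffer without enzyme for full effect; nearly all actives have a fitted effect of over 40% in size; top concentration of the series not given in the record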
# Target sequence (P25779 123-467 limits assumed): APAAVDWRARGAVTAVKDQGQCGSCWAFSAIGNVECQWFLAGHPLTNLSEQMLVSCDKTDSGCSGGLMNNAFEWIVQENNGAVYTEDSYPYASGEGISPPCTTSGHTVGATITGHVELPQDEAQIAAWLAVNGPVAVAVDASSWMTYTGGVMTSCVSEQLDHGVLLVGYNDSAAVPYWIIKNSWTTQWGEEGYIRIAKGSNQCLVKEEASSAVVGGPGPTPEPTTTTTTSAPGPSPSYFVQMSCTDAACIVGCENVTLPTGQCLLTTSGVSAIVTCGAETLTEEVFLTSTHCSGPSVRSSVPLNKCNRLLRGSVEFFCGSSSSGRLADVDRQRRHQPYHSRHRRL
#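 Steps: dispense cruzain (1.5 nM final) in acetate buffer pH 5.5 with DTT and 0.01% Triton X-100; pin-transfer compounds; incubate 15 min RT; add Z-FR-AMC (2 uM final); read fluorescence every 30 s, using the 60 s intensity change.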
# Lassa entry inh = qHTS for Inhibitors of binding or entry into cells for Lassa Virus; Lassa virus pseudotype entry inhibition, cell reporter; control for the full effect not named in the record; Potency, µM (titrated, usually from 37.9 µM), without a hit: top-dose activity change, negative = inhibition, hits mostly inhibitors; 300,000 compounds, 1.2% hits; AID 540256, 2011; active means well fitted inhibition curve with a large enough effect; inconclusive means small, poorly fitted or top-dose-only effect, or effect the other way; inactive means flat fitted curve, though single readings scatter; tested in HEK293 cells; further: on the % scale 0 is the no-effect control and ±100 the full control effect; nearly all actives have a fitted effect of over 50% in size; luciferase read-out
# NS1 inh = qHTS Assay for Inhibitors of Influenza NS1 Protein Function; Potency, µM (top dose mostly 46.1 µM), inactives show at the top dose activity, positive = more growth; S. cerevisiae slowed by influenza A NS1, growth recovery by OD600; 270,000 compounds, 0.4% hits; further: actives are rising curves; nearly all actives have a fitted effect of over 50% in size
#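 S. cerevisiae expressing influenza A NS1, grown in glucose, washed, then diluted 1:100 into pH 6.0 -URA galactose medium with 23 nl compound. Growth recovery read as OD600; NS1-free strain serves as control.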
# StopGo reporter = High Throughput Screening for Foot and Mouth Disease Virus Antivirals; human cells with a luciferase reporter of 2A StopGo recoding; control for the full effect not named in the record; Potency, µM (series often up to 57.9 µM), for the others: at the top dose signal change, negative = less light; 410,000 compounds, 1.2% hits; AID 1159524, 2015; active = well fitted falling curve with a large enough effect; inconclusive = small, poorly fitted or top-dose-only effect; inactive = no such curve, though single readings can be large or run the other way; tested in HEK293T cells; further: on the % scale 0 is the no-effect control and ±100 the full control effect; nearly all actives have a fitted effect of over 45% in size; luciferase light after 4 h
# SARS PLpro yeast = qHTS of Yeast-based Assay for SARS-CoV PLP; S. cerevisiae expressing SARS-CoV PLpro, growth rescue; control for the full effect not named in the record; Potency, µM (top dose mostly 32.9 µM), inactives show at the top dose activity, positive = growth rescue; 330,000 compounds, 0.19% hits; AID 485353, 2010; further: 0% is about no effect; nearly all actives have a fitted effect of over 55% in size; growth read by luminescence after 48 h
# RE007 growth inh = qHTS Assay for Inhibitors of the HIV-1 protein Vpr; S. pombe RE007 Vpr strain, BacTiter-Glo ATP luminescence, 24 h; control for the full effect not named in the record; AID 651644, 2012; 360,000 compounds, 0.21% hits; Potency, µM (doses to about 92.2 µM), without a hit: at the top dose activity change, negative = less growth; active = well fitted falling curve with a large enough effect; inconclusive = small, poorly fitted or top-dose-only effect; inactive = no such curve, though single readings can be large or run the other way;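 further: on the % scale 0 is the no-effect control and ±100 the full control effect; nearly all actives have a fitted effect of over 50% in size; the assay follows cell death caused by Vpr and the record does not say whether a fall means rescue or toxicity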
#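 Fission yeast strain RE007, carrying one chromosomally integrated HIV-1 vpr copy, was seeded at OD 0.01 in PMG+AL medium with 23 nL pinned compound. After 24 h at 30 °C and 99% humidity, viability was read by BacTiter-Glo luminescence.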
# MARV entry inh = qHTS for inhibitors of binding or entry into cells for Marburg Virus | Marburg virus pseudotyped entry inhibition, cell reporter; control for the full effect not named in the record; about a third of the inactives were read at about 46 µM | Potency, µM (titrated, usually from 37.8 µM), inactives show at the top dose activity change, negative = inhibition, actives largely listed as inhibitors | 300,000 compounds, 1.8% hits | AID 540276, 2011; active = well fitted inhibition curve with a large enough effect; inconclusive = small, poorly fitted or top-dose-only effect, or effect the other way; inactive = flat fitted curve, though single readings scatter; tested in HEK293 cells; about a fifth of its hits are not listed in these tables; further: on the % scale 0 is the no-effect control and ±100 the full control effect; luciferase read-out
# Cruzain inh noDet = qHTS Assay for Promiscuous and Specific Inhibitors of Cruzain (without detergent). Potency, µM, inactives show max response, negative = inhibition, most hits filed as inhibitors. AID 1476, 2009. Cruzipain (Trypanosoma cruzi), P25779. purified cruzain, Z-FR-AMC fluorescence, no detergent. 200,000 compounds, 2.3% hits; active means well fitted curve in the direction sought with a large enough effect; inconclusive means small, poorly fitted or top-dose-only effect, or another doubt; inactive means no such curve, though single readings can be large; an effect the other way counts as inactive or inconclusive;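 further: plate controls were enzyme without inhibitor for no effect and buffer without enzyme for full effect; nearly all actives have a fitted effect of over 40% in size; top concentration of the series not given in the record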
#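 Detergent-free condition (0.00005% Triton X-100) in acetate buffer pH 5.5 with DTT. 1.5 nM enzyme and compound were pre-mixed 15 min, then 2 uM Z-FR-AMC substrate added; reaction progress from fluorescence change between first and third reads (60 s).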
# * marks the source's active call; other numbers are inactive results; ? = inconclusive; . = not tested or not shown; [ ] = remark or other dose. Unless noted, the call rests on the fitted dose curve; in most records, active means well fitted rising curve with a large enough effect; inconclusive means small, poorly fitted or top-dose-only effect; inactive means no such curve, though single readings can be large or run the other way. Potency means the concentration at half of the fitted maximal effect.
SMILES,Cruzain inh Det,Lassa entry inh,NS1 inh,StopGo reporter,SARS PLpro yeast,RE007 growth inh,MARV entry inh,Cruzain inh noDet
Cc1[nH]c2ccc(C(=O)N3CCCCC3)cc2c1C,.,-20%,.,93%[activator],-1%,3%,?,.
COc1ccc(NC(=O)C(NC(=O)/C=C\c2ccc3c(c2)OCO3)c2ccccc2)cc1 (stereo not drawn),-1.1%,?,.,-13%,.,.,?,10%
O=C1C2CC=C(Cl)CC2C(=O)N1CCC[n+]1ccccc1 (stereo not drawn),0.1%,-16%,13%,-3%,-2%,6%,13%,2%
COc1ccccc1C(=O)NCCOc1ccc(C)c(C)c1,.,.,17%,-1%,1%,1%,.,.
Cc1ccc(C)c(S(=O)(=O)N2CCN(CC(=O)NC(=O)NCc3ccccc3)CC2)c1,-2.6%,26µM*,-49%,?,2%,15%,?,23%
COc1ccccc1NC(=O)C1=C(C)Nc2nc(-c3ccc(N(C)C)cc3)nn2C1c1ccncc1 (stereo not drawn),-6.4%,5%,-2%,-12%,4%,7%,-24%,?
COC(=O)c1ccc(C(=O)Nc2ccc(C(C)C)cc2N)cc1,.,-25%,.,12%,-4%,8%,6%[14.2 µM],.
CCc1nc(Nc2cccc(F)c2)c2oc3ccccc3c2n1,.,9%[46.1 µM],-8%,-23%,3%,-10%,-13%[46.1 µM],.
CC(C)(C)C(=O)O/N=C(\N)c1c(Cl)cccc1Cl,.,17%,-8%,-13%,0%,-1%,?,.
COc1ccc(OC)c(NC(=O)COc2ccc(S(=O)(=O)N3CCCC3)cc2)c1,.,?,?,14%,-5%,-11%,1%[46.1 µM],.
COc1cc(C2NC(=O)NC(O)(C(F)(F)F)C2C(=O)c2cccs2)ccc1O (stereo not drawn),3.0%,-3%,2%,9%,4%,0%,10%,9%
CCC1CC(/C(C)=N/NC(N)=O)OC1=O (stereo not drawn),.,-12%,.,-6%,0%,-5%,6%,.
O=C(CCCCCn1c(=O)c2sccc2n(CC(=O)Nc2ccccc2F)c1=O)NCc1ccc2c(c1)OCO2,-3.3%,-24%[46.1 µM],.,-8%,.,.,5%[46.1 µM],2%
COCCn1c(CN2CCN(C(c3ccccc3)c3ccccc3)CC2)nc2c1c(=O)n(C)c(=O)n2C,.,?,0%,-17%,2%,12%,24%[46.1 µM],.
Cc1cc(NC(=O)CSc2nnnn2-c2ccc(F)cc2)no1,.,29%[46.1 µM],-5%,-15%,1%,17%,3%[46.1 µM],.
Cc1nc2ccccc2c(=O)n1NC(=O)/C=C/c1ccccc1,1.0%,-15%,-2%,-15%,-4%,-2%,?,11%
Fc1ccc(CNc2cnccn2)cc1,1.5%,13%,4%,22%,-1%,-6%,6%,-5%
O=C(NCc1ccncc1)NC12CC3CC(CC(C3)C1)C2,.,22%[46.1 µM],.,0%,0%,4%,?,.
CCOc1cc(N2CCOCC2)c(OCC)cc1NC(=O)CSc1ncccn1,.,-27%,.,-17%,2%,4%,2%[46.1 µM],.
Cc1csc(Nc2ccccc2)[n+]1-c1ccccc1,.,?,.,-27%,3%,-14%,1%[46.1 µM],.
COc1ccc(N2CCN(C(=O)CCc3nnc4ccc(N5CCOCC5)nn34)CC2)cc1,.,-1%[46.1 µM],-3%,-12%,1%,5%,18%[46.1 µM],.
Cc1ccc(/C=C/C(=O)O)cc1S(=O)(=O)NC1CCS(=O)(=O)C1 (stereo not drawn),.,?,4%,-3%,-1%,11%,20%[46.1 µM],.
O=C(Cn1cnc2c(oc3ccccc32)c1=O)N1CCCC1,.,3%,.,41%[activator],-1%,4%,?,.
COc1cccc(N2CC(C(=O)Nc3nnc(SCC(=O)NCc4ccco4)s3)CC2=O)c1 (stereo not drawn),.,.,7%,4%,-2%,26%,.,.
Cc1ccc(Cl)cc1NC(=O)CCNC(=O)N1CC(=O)Nc2ccccc21,.,.,9%,-15%,2%,-1%,.,.
CCc1ccc(-n2c(=O)c3c4c(sc3n(CC(=O)NC(C)CC)c2=O)CCCC4)cc1 (stereo not drawn),-1.7%,-15%[46.1 µM],.,-5%,.,.,?,-13%
CCCN(CCC)S(=O)(=O)c1ccc(N2CCCCS2(=O)=O)cc1,-0.6%,-2%[46.1 µM],.,14%,.,.,.,8%
Cc1ccc(NC(=O)C2C3C=CC(O3)C2C(=O)O)cc1C (stereo not drawn),.,8%[46.1 µM],8%,12%,-6%,-18%,0%[46.1 µM],.
CC(=O)c1ccc(NC(=O)CSc2nc(=O)cc(N)n2-c2ccccc2)cc1,.,12%[46.1 µM],-1%,29%,-1%,-3%,?,.
N#CCCN(C(=O)CSc1nnc(-c2ccncc2)n1C1CC1)c1ccccc1,.,13%,.,-9%,7%,9%,-19%,.
CS(=O)(=O)N(CC(=O)Nc1ccccc1C(=O)N1CCCC1)c1ccccc1Br,.,-2%,-38%,17%,?,-16%,-11%,.
Cc1cc(NC(=O)c2ccccc2O)nc(C)n1,.,-9%,-36%,7%,1%,-2%,-2%[46.1 µM],.
O=C(NCCCN1CCN(c2ccccc2)CC1)Nc1ccccc1C(F)(F)F,3.3%,4%,?,0%,?,-2%,0%,0%
NC1=NC(=O)C(Cc2ccc(Br)cc2)S1 (stereo not drawn),.,.,15%,5%,-4%,0%,.,.
CCN(CC)C(=O)Cn1cc(SCC(=O)Nc2ccccc2C)c2ccccc21,-1.2%,?,.,-13%,.,.,.,-2%
CC(=O)c1cccc(NC(=O)c2ccc(C)o2)c1,.,0%,.,30%[activator],-9%,-17%,6%,.
CCc1cc2c(=O)c(-c3nc(C)cs3)coc2cc1OC(C)C(=O)NCCO (stereo not drawn),-4.7%,9%,-5%,-24%,15%,6%,?,?
Cc1ccc(S(=O)(=O)/C(C#N)=C/c2c(N3CC(C)OC(C)C3)nc3c(C)cccn3c2=O)cc1 (stereo not drawn),-8.4%,-1%,15%,13%,-17%,15%[3.69 µM],-7%,?
CN1c2ccc([N+](=O)[O-])cc2CC2(C(=O)NC(=O)N(c3ccc(Br)cc3)C2=O)C1c1ccccc1 (stereo not drawn),-4.8%,-26%,?,?,0%,-21%,?,-20%
CC(C)CN(C(=O)COC(=O)c1ccccc1SCC(=O)NC1CCCCCC1)C1CCS(=O)(=O)C1 (stereo not drawn),-3.6%,4%,1%,7%,-1%,-5%,14%,23%
O=C(O)c1ccc(NC(=S)NC(=O)c2cccnc2)cc1,.,25%[46.1 µM],12%,-13%,29%,-8%,26%[46.1 µM],.
COc1ccc(C(CNC(=O)Cc2cccs2)N(C)C)cc1 (stereo not drawn),.,9%[46.1 µM],-8%,21%,4%,-1%,?,.
Nc1nc(-c2cccs2)c(NC(=O)c2ccccc2)s1,-3.9%,-2%,0%,.,-2%,-3%,-15%,1%
CC1(C)[C@H]2CC[C@]1(C)[C@@H](OC(=O)C[N+]1(C)CCOCC1)C2,.,-7%,1%,-4%,0%,3%,0%[46.1 µM],.
NNC(=O)Cn1c(-c2ccccc2)cc(=O)n2ncnc12,.,6%,9%,3%,1%,4%,-4%[46.1 µM],.
O=C(Oc1ccc(-c2nc(-c3ccccn3)no2)cc1)c1ccccc1,2.0%,?,-6%,-76%,-2%,?,-27%,?
Cc1cc(=O)oc2c1c(C(F)(F)F)nn2-c1ccccc1,.,.,1%,-5%,0%,-21%,.,.
CN(C(=O)COC(=O)c1ccccc1SCC(=O)NC1CCCCCCC1)C1CCS(=O)(=O)C1 (stereo not drawn),-1.1%,3%,1%,0%,20%,2%,?,11%
CC(=O)N1CCCc2cc(S(=O)(=O)NC(C(=O)NC(C)c3ccccc3)C(C)C)ccc21 (stereo not drawn),-0.6%,-23%,2%,6%,16%,24%[3.69 µM],-1%,-1%
COc1ccccc1NC(=O)CSc1nc2n[nH]c(C)c2c(=N)n1-c1ccccc1Cl,-8.4%,?,23%,?,?,1%,15µM*,?
CCCN1CNc2c(c(=O)[nH]c(=S)n2-c2ccc(Cl)cc2)C1,.,-3%,.,10%,-1%,-8%,14%[46.1 µM],.
CC(C)NC(=O)CN1C(=O)c2cccc3cccc1c23,.,-1%[46.1 µM],7%,0%,-7%,-10%,-11%[46.1 µM],.
CCC(C)N1C(=O)C2C(C(=O)Nc3cccc(OC)c3)C3C=CC2(O3)C1C(=O)NC1CCCCC1C (stereo not drawn),3.1%,3%,1%,1%,-2%,-3%,5%[46.1 µM],1%
CC1=NN(C(=O)c2ccccc2Br)C(O)(c2ccc(Cl)cc2)C1 (stereo not drawn),.,.,6%,-9%,3%,-1%,.,.

# Whole records, quoted from the list. Order of screens: Cruzain inh Det, Lassa entry inh, NS1 inh, StopGo reporter, SARS PLpro yeast, RE007 growth inh, MARV entry inh, Cruzain inh noDet
# COc1ccccc1NC(=O)CSc1nc2n[nH]c(C)c2c(=N)n1-c1ccccc1Cl reads -8.4%, ?, 23%, ?, ?, 1%, 15µM*, ?
# CC(=O)N1CCCc2cc(S(=O)(=O)NC(C(=O)NC(C)c3ccccc3)C(C)C)ccc21 (stereo not drawn) reads -0.6%, -23%, 2%, 6%, 16%, 24%[3.69 µM], -1%, -1%
# O=C(O)c1ccc(NC(=S)NC(=O)c2cccnc2)cc1 reads ., 25%[46.1 µM], 12%, -13%, 29%, -8%, 26%[46.1 µM], .
# CCCN1CNc2c(c(=O)[nH]c(=S)n2-c2ccc(Cl)cc2)C1 reads ., -3%, ., 10%, -1%, -8%, 14%[46.1 µM], .
# Cc1cc(=O)oc2c1c(C(F)(F)F)nn2-c1ccccc1 reads ., ., 1%, -5%, 0%, -21%, ., .
